# From PubChem
# PINK1 expr mod: PINK1 expression modulation | PINK1 immunofluorescence, high-content cytometry, 24 h | Potency, µM (highest dose often 76.6 µM), without a hit: at the highest dose activation (PINK1 increase), most hits filed as activators | 410,000 tested, 0.2% active | AID 624263; active = well fitted activation curve with a large enough effect; inconclusive = small, poorly fitted or top-dose-only effect; inactive = flat fitted curve, though single readings scatter; cell line not stated here;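 further: potency means the concentration at half of the fitted maximal effect; % of control where 0% means no effect; nearly all actives have a fitted effect of over 65% in size; a mitochondrial uncoupler was the plate control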
#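 Fluorescence from anti-PINK1 antibody, together with nuclear and cell stains, was scanned on a laser-scanning cytometer. Before staining, stable-line cells were incubated 24 hours with compounds at 5 concentrations; primary antibody 12 h at 10 degrees C.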
# TRPML1 ag: agonists of human TRPML1 channel. TRPML1-expressing cells, Ca2+ dye fluorescence, FDSS; host cell line not named in the record; reference of the full effect not given here. AID 624414. activation, % (no concentration beside the values). 410,000 tested, 0.12% active. Q9GZU1; in the data active = activation above about 50%; inconclusive = about 30% to 50%; inactive = below about 30%; further: 0% is about no effect; the text of the record puts the active cut at 80%
# Target sequence (Q9GZU1 whole entry, looked up): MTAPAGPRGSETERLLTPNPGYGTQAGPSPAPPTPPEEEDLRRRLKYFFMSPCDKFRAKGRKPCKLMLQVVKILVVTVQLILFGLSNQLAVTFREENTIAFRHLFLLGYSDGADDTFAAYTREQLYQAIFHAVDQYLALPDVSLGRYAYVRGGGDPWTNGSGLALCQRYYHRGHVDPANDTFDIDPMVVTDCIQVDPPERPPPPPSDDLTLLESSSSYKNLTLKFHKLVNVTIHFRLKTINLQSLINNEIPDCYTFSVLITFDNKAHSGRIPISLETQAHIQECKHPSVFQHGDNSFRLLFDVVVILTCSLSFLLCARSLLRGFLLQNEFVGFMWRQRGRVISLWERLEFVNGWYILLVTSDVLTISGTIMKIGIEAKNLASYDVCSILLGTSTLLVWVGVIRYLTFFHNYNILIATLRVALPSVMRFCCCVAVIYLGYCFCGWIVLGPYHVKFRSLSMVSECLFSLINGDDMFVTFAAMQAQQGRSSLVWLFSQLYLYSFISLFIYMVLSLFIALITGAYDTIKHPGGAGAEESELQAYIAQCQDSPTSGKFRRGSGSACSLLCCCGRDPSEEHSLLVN
#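 Calcium fluorescence on an FDSS kinetic reader gave the read-out. Tet-induced TRPML1-DL cells were plated overnight, dye-loaded (Ca8 with quencher, 45-90 min, room temperature, dark), then read 110 s after compound addition, and again 110 s after 4uM final 54-4 (EC80).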
# The depositor's hits bear a star; ? = inconclusive.
mol | PINK1 expr mod | TRPML1 ag
COc1cccc2c1cc1c(=O)n(CC(=O)N3CCN(c4ccc(F)cc4)CC3)nc(C)n12 | 0.1% | 0.5
Cc1cccc2sc(N(Cc3cccnc3)C(=O)Cc3ccccc3)nc12 | 30% | 2.3
COc1cc(OC)c(NC(=O)CSC2=Nc3ccccc3N=C(c3ccc(F)cc3)C2)cc1Cl | 4.0% | -0.2
Cc1ccc2c(=O)cc(C(=O)Nc3c(C(=O)Nc4cccc(Cl)c4)oc4ccccc34)oc2c1 | 1.0% | 1.5
COc1cc(-c2nnc(SCCOc3ccccc3)o2)cc(OC)c1OC | 0.9% | 0.5
COc1ccc(Cn2c(C(=O)O)c(CNC3CCC(C)CC3)c3ccc(C)cc32)cc1 (stereo not drawn) | 0.9% | 2.9
CCN(c1ccccc1)c1ccc2cc(S(=O)(=O)N3CCCC3)ccc2n1 | 0.3% | 2.5
COc1ccc(Nc2nc(N)c3cc(OC)c(OC)cc3n2)cc1 | 2.7% | -0.3
CC1CCCN(c2nc(-c3ccccc3O)nc3ccccc23)C1 (stereo not drawn) | -4.5% | 1.1
COc1ccc(-c2ccc(NS(=O)(=O)c3cccc(C)c3)cc2)nn1 | 1.7% | -0.1
CC1(C)O[C@H]2[C@@H](O1)[C@@H](C(=O)Nc1ccccc1C(F)(F)F)O[C@@H]1OC(C)(C)O[C@@H]12 | -0.2% | -0.3
Cc1ccc(OCC(=O)Nc2ccc(OCc3cc(=O)n4c(C)csc4n3)cc2)cc1C | 0.0% | 0.6
CCOC(=O)c1noc2ncn(Cc3ccc([N+](=O)[O-])cc3)c(=O)c12 | 0.5% | -0.7
CCC(C(=O)N1CCN(c2cc(C)ccc2C)CC1)n1nc(C)n2c(cc3occc32)c1=O (stereo not drawn) | -0.3% | 1.3
O=C(Nc1cccc(C(=O)N2CCN(c3cccc(Cl)c3)CC2)c1)c1nsc2ccccc12 | -0.7% | 1.7
CCC(=O)N1CCc2cc(CNC(=O)Nc3ccccc3Cl)ccc21 | 2.7% | 2.9
O=c1c2sc3ccccc3c2n(Cc2ccccc2F)c(=O)n1Cc1ccccc1 | 0.8% | -0.2
Cc1c(Cl)cccc1-n1nnc(-c2nc(-c3ccc4c(c3)OCO4)no2)c1C | -0.4% | 0.5
COc1ccc(C(=O)N2CCN(Cc3cc(=O)n4nc(-c5ccccc5C)sc4n3)CC2)cc1OC | 0.4% | -0.4
CC(=O)c1ccc(NS(=O)(=O)c2cnc(N)nc2)cc1 | 2.0% | 0.9
COc1ccc(-c2cn3nc(SCC(=O)Nc4cccc(C)c4C)ccc3n2)cc1 | 0.4% | -0.6
Cc1cc(C)c2c(CC(=O)Nc3nnc(CC(C)C)s3)coc2c1 | -0.6% | -0.1
CC(=O)Nc1ccc(NC(=O)c2c(-c3ccccc3)noc2C)cc1 | -3.8% | 0.3
O=C(NC1CCCC1)c1ccc(CSc2nc3ccncc3n2Cc2ccccc2F)cc1 | 1.5% | 2.2
CCc1ccccc1NC(=O)c1cc2c(Cl)nc3ccccc3c2s1 | 0.1% | 0.2
Cc1ccccc1Cn1c(SCc2ccc(C(=O)NC3CCCC3)cc2)nc2ccncc21 | -0.2% | 0.4
CCCCn1cc(S(=O)(=O)c2ccc(OC)cc2)c(=O)c2cc(F)c(N3CCCC3)cc21 | -0.2% | -0.7
COC(=O)c1ccc(NC(=O)CSc2nc(=O)n(Cc3ccco3)c3c2CCC3)cc1 | -1.0% | 2.5
O=C(NCC(c1cccnc1)N1CCN(c2ccccc2F)CC1)c1ccc(F)cc1 (stereo not drawn) | 2.0% | 0.4
Cc1c(C(=O)O)oc2c1-c1nn(Cc3ccccc3Cl)cc1CC2 | 1.2% | -0.3
Cc1ccc(CNC(=O)CSc2nc3c(sc4ccccc43)c(=O)n2CCCC(=O)NCCO)cc1 | -0.8% | 0.0
Cc1cccc(C(=O)N2CCC(N3CCN(Cc4ccc(F)cc4)C(=O)C3=O)CC2)c1 | 1.3% | -0.1
O=c1cc(CSc2ncn[nH]2)[nH]c2ccc(F)cc12 | -0.4% | 1.1
CC1Cc2cc(S(=O)(=O)N3CCN(c4ccccc4F)CC3)ccc2N1C(=O)C1CCC1 (stereo not drawn) | 0.4% | 1.2
CC(=O)Nc1ccc2nc(SCCOc3ccccc3Cl)sc2c1 | 2.8% | -0.8
CCc1cc(=O)oc2c(C)c3c(cc12)CN(CCc1ccccc1)CO3 | -0.7% | -0.9
CCOc1ccc(-n2c(=O)c3c(C)c(C)sc3n(Cc3ccc(C(C)(C)C)cc3)c2=O)cc1 | 2.5% | 0.5
CCOc1ccccc1NC(=O)c1c(NCc2ccc(OC)c(OC)c2OC)sc2c1CCC(C)C2 (stereo not drawn) | 1.8% | 0.0
Cc1ccccc1OCCSc1nc2ccc(NC(=O)c3cccc(F)c3)cc2s1 | 7.0% | 0.5
CCOc1ccccc1C(=O)Nc1ccc(S(=O)(=O)Nc2onc(C)c2C)cc1 | -0.5% | 1.5
Cc1ccc(NC(=O)Cn2cc(S(=O)(=O)N3CCCC3)c(S(=O)(=O)N3CCCC3)c2)c(C)c1 | 1.8% | -0.6
COc1ccc(Cl)cc1Nc1sc(C(=O)c2ccccc2)c(N)c1C(=O)Nc1ccccc1 | 3.0% | 2.6
Nc1nc(NCc2ccc(F)cc2)c2[nH]cnc2n1 | 0.2% | -0.7
COc1ccccc1NC(=O)CSc1nnc(-c2cccc(Cl)c2)o1 | 3.6% | 2.0
CCc1ccc(S(=O)(=O)NCc2nc3cccnc3n2Cc2ccccc2Cl)cc1 | -0.2% | 0.2
CC(=O)Nc1cccc(NC(=O)c2c(-c3ccccc3)c(-c3ccccc3)nn(C)c2=O)c1 | -1.4% | 0.8
Cc1cccc(N2CCN(C(=O)CSCc3ccc(F)cc3)CC2)c1C | 0.7% | 1.9
Cc1ccccc1NC(=O)Cn1c(=O)n(CCc2ccccc2)c(=O)c2sc3ccccc3c21 | 2.1% | -0.7
Cc1ccc(NC(=O)CCC(=O)N2Cc3ccccc3Oc3ncccc32)cc1F | -0.5% | 2.7
Cc1ccccc1NC(=O)Cn1cc(C(=O)c2ccco2)c2ccccc21 | -0.6% | 0.0

# Among those listed so far, these contain a thiophene ring, fused or not.
mol | PINK1 expr mod | TRPML1 ag
O=c1c2sc3ccccc3c2n(Cc2ccccc2F)c(=O)n1Cc1ccccc1 | 0.8% | -0.2
CCc1ccccc1NC(=O)c1cc2c(Cl)nc3ccccc3c2s1 | 0.1% | 0.2
Cc1ccc(CNC(=O)CSc2nc3c(sc4ccccc43)c(=O)n2CCCC(=O)NCCO)cc1 | -0.8% | 0.0
CCOc1ccc(-n2c(=O)c3c(C)c(C)sc3n(Cc3ccc(C(C)(C)C)cc3)c2=O)cc1 | 2.5% | 0.5
CCOc1ccccc1NC(=O)c1c(NCc2ccc(OC)c(OC)c2OC)sc2c1CCC(C)C2 (stereo not drawn) | 1.8% | 0.0
COc1ccc(Cl)cc1Nc1sc(C(=O)c2ccccc2)c(N)c1C(=O)Nc1ccccc1 | 3.0% | 2.6
Cc1ccccc1NC(=O)Cn1c(=O)n(CCc2ccccc2)c(=O)c2sc3ccccc3c21 | 2.1% | -0.7

# Later entries:
mol | PINK1 expr mod | TRPML1 ag
COc1cc(O)ccc1C1CC(=O)Nc2c1c(=O)nc(SCc1ccccc1C)n2C (stereo not drawn) | -1.3% | 0.6
COc1cccc(-c2cc(C(=O)Nc3c(C)nn(Cc4ccccc4Cl)c3C)no2)c1 | 0.8% | -0.9
O=C(O)c1ccc(CNCc2ccccc2Cl)s1 | 0.1% | 0.0
COc1ccc(Cl)cc1NC(=O)CN(C)S(=O)(=O)c1ccc2c(c1)CCCN2C(C)=O | -0.1% | 0.7
COc1ccc(C2CC(=O)c3cc(-c4nc(-c5ccc(Cl)cc5)cs4)c(=O)[nH]c3C2)cc1OC (stereo not drawn) | 5.5% | 2.6
CCCCC(=O)Nc1cccc(OCc2cc(=O)n3ccccc3n2)c1 | -0.9% | -0.1
COC(=O)C1CCN(S(=O)(=O)c2ccc(N3CCCCS3(=O)=O)cc2)CC1 | 1.2% | -0.5
COCCCNC(=O)C1CCN(C(=O)c2cc3sccc3n2Cc2ccc(Cl)cc2)CC1 | -0.5% | 1.3
COc1cccc(CNC(=O)c2cc(C)nc3c2c(C)nn3-c2cccc(F)c2)c1 | -0.1% | -0.3
Cc1ccc(C)c(S(=O)(=O)Nc2ccc3c(c2)CCCN3C(=O)c2cccs2)c1 | -1.1% | -0.5
Cn1c(C(=O)N2CCC(C(=O)NCCc3ccc(S(N)(=O)=O)cc3)CC2)cc2sccc21 | 4.5% | 0.5
Cc1cccc2c1-c1sc(C(=O)N3CCN(c4ccccc4)CC3)cc1CO2 | 1.3% | -0.3
CCOC(=O)c1ccc(CN(Cc2ccc(OC)cc2)S(=O)(=O)c2cccc(C(F)(F)F)c2)cc1 | 2.3% | 0.7
O=C(NCc1ccccc1Br)c1ccc(-n2cnc3cccnc32)cc1 | 1.5% | 0.2
O=C(CSc1cn(CCNC(=O)c2ccccc2F)c2ccccc12)Nc1ccc(F)cc1 | 5.8% | 1.0
CN(C)c1ccc(CNC(=O)C2CCN(S(=O)(=O)c3ccc4c(ccn4C)c3)CC2)cc1 | 2.2% | 0.4
Cc1cc(C(F)F)n2nc(C(=O)Nc3cc(Cl)ccc3C)nc2n1 | 3.3% | -1.0
CCc1ccc(OC(C)C(=O)N2CCC(c3nc4ccccc4s3)CC2)cc1 (stereo not drawn) | 0.9% | 2.7
CCc1ccccc1NC(=O)N1CCc2cc(OC)c(OC)cc2C1CC(=O)OC (stereo not drawn) | -1.5% | 0.1
Cc1ccc(-c2nc3c4ccccc4n(CC(=O)N4CCN(c5ccccc5F)CC4)c(=O)n3n2)cc1 | 3.7% | 0.7
COc1cc(NS(=O)(=O)c2cnc(N)nc2)cc(OC)c1 | -0.8% | -0.3
O=C(Cn1nnc(-c2cccc(C(F)(F)F)c2)n1)NCc1ccc(F)cc1 | 5.0% | -0.1
CCCC12CN3CC(C)(CN(C1)C3c1ccc(OCc3ccccc3)cc1)C2=O (stereo not drawn) | 0.3% | 0.1
CCOC(=O)c1c(N)n(-c2ccc(CC)cc2)c2nc3ccccc3nc12 | -4.4% | 2.0
COc1ccc(Br)cc1CNC(=O)c1ccc2c(c1)nc1n2CCCCC1 | 3.1% | 2.4
COc1cccc(N2CCN(S(=O)(=O)c3ccc(-c4ccno4)cc3OC)CC2)c1 | 1.1% | 2.0
Cc1ccc(CN(Cc2ccco2)C(=O)COc2ccc(Cl)cc2Cl)cc1 | 6.0% | 1.3
Cc1ccc(CNC(=O)c2c(-c3ccc(F)cc3F)noc2C)o1 | 1.2% | 0.2
Cc1ccccc1-c1noc(-c2ccc(NCc3ccco3)c([N+](=O)[O-])c2)n1 | -0.8% | -0.9
COc1cccc(CN(C(=O)c2oc3ccccc3c2C)C2CCS(=O)(=O)C2)c1 (stereo not drawn) | -2.1% | -0.3
Cc1ccccc1NC(=O)c1ccc2c(c1)c(C)c(C)n2Cc1ccccc1 | 4.4% | 0.4
COc1ccc(C2Nc3ccccc3C(=O)N2c2ccc(F)cc2)cc1COc1ccc(NC(C)=O)cc1 (stereo not drawn) | -0.3% | -0.6
COc1cccc(N2CCN(C(=O)CCCCCn3c(=O)[nH]c4ccccc4c3=O)CC2)c1 | 1.8% | 0.0
CCOC(=O)Cn1c(=O)oc2cc(S(=O)(=O)N3CCN(c4cc(C)ccc4C)CC3)ccc21 | -2.4% | 0.5
CC(C(=O)Nc1ccccc1C(F)(F)F)n1nc(-c2ccccc2)c2c(c1=O)CCCC2 (stereo not drawn) | 1.9% | 2.5
CC(C)c1ccc(NC(=O)C2Cc3ccccc3N2C(=O)c2ccccc2)cc1 (stereo not drawn) | ? | 4.9
CCCN1CNc2c(c(=O)[nH]c(=S)n2CCc2ccc(OC)cc2OC)C1 | -0.5% | -0.6
Cc1cccc(C)c1-n1ncc(C(=O)Nc2ccc3c(c2)OCO3)c1C1CCN(C(=O)OC(C)(C)C)CC1 | 1.5% | -0.8
COc1ccccc1-c1noc(-c2ccc(N3CCC(C)CC3)c([N+](=O)[O-])c2)n1 | -0.3% | -0.6
CCCc1cc(=O)[nH]c(Nc2cc(C)cc(C)c2)n1 | 2.0% | 0.0
COc1ccc(NC(=O)c2[nH]nc3c2CSc2ccccc2-3)c(OC)c1 | 4.8% | 0.8
COc1ccccc1CN1CCC(CNC(=O)c2cnn(-c3ccc(Cl)cc3)c2C2CCN(C(=O)OC(C)(C)C)CC2)CC1 | -2.6% | 1.9
COC(=O)c1cc(NC(=O)c2nn(C)c3c2COc2ccccc2-3)cc(C(=O)OC)c1 | 0.0% | -0.1
COc1cccc2cc(C(=O)N(Cc3cccs3)Cc3cccs3)c(=O)oc12 | 3.4% | -0.6
CN(Cc1ccc(F)cc1)S(=O)(=O)c1nnc(NC(=O)c2ccc(F)cc2)s1 | 0.6% | 1.6
CC(NC(=O)CSc1n[nH]c(-c2ccccc2)n1)c1nc2ccccc2n1C (stereo not drawn) | -0.3% | 0.0
CCc1ccc(-n2c(=O)c3c4c(sc3n(CC(=O)NC(C)CC)c2=O)CCCC4)cc1 (stereo not drawn) | -0.2% | 0.2

# Whole records, quoted from the list. Values in the order: PINK1 expr mod | TRPML1 ag
# Cc1ccc(CNC(=O)c2c(-c3ccc(F)cc3F)noc2C)o1 is listed as 1.2% | 0.2
# COc1ccccc1CN1CCC(CNC(=O)c2cnn(-c3ccc(Cl)cc3)c2C2CCN(C(=O)OC(C)(C)C)CC2)CC1 is listed as -2.6% | 1.9

# These rows are one share of the data. The share of hits here may be higher or lower than overall.
